# UUG fidelity: yeast start codon fidelity modulation; activity score, % at 18.7 µM; S. cerevisiae UUG-firefly luciferase reporter, luminescence/redox ratio; actives 0.13% (n = 350,000);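 active means replicate mean at a twofold rise or more, about +100% in these data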;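 further: firefly luciferase made from a UUG start codon reports start codon fidelity; reporter light over untreated wells divided by growth signal over untreated wells; some hits fall short of that in this replicate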
# PABP FP inh: PABP-poly(A) binding inhibition | P11940 | PABP-poly(A) RNA binding, fluorescence polarization | inhibition, % at 35 µM | actives 1% (n = 290,000);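 active means 50% or more with normal probe brightness, or confirmed in later tests; inconclusive means above 50% with abnormal brightness, or retests that disagree; inactive means below 50% or failed in later tests; about a fifth of its hits are not listed in these tables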;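 further: calls also rest on retests at 20 µM and on dose response follow-up; controls were probe without protein and protein plus probe with vehicle; some compounds called inactive have numbers as strong as hits; many hits fall short of the cut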
# Target sequence (P11940 whole entry, looked up): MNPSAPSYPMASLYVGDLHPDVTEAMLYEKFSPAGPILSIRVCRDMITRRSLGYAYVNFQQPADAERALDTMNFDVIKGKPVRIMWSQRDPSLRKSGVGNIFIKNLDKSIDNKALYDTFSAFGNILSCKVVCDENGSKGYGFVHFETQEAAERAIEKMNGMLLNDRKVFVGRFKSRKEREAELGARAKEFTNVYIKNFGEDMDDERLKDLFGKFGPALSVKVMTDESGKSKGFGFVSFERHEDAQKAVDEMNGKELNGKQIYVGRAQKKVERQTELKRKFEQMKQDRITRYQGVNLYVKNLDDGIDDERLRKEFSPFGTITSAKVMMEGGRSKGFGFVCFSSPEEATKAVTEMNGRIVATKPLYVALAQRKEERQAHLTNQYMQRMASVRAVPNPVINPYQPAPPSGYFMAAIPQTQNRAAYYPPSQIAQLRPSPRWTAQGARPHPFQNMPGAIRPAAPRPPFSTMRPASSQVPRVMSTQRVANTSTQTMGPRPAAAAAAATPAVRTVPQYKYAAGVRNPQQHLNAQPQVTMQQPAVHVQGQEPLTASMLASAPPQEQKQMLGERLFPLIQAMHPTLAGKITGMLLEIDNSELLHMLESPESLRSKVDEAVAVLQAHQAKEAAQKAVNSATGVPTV
# MT1-MMP act inh: MT1-MMP (human) activation inhibition; GFP/RFP ratio change, % at 20 µM; actives 0.061% (n = 360,000); P50281; HT1080 RFP-PRO-GFP cells, GFP/RFP ratio fluorescence, overnight; percent of plate control window, DMSO zero;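 active means GFP/RFP ratio change of at least 30% with cell ATP level not reduced by more than half and red fluorescence within 50% of control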; further: strong numbers were not always called active
#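 Material – HT1080 RFP-PRO-GFP cells · Control set – DMSO wells and RFP-L50D-GFP cells · Incubation – overnight cell settling, then overnight compound exposure, 37 °C, 5% CO2 · Compound dosing – single-point 20 µM compound, 1% DMSO · Read-out – GFP/RFP fluorescence ratio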
# HIV Env fusion: inhibitors of HIV Env-mediated cell fusion. HeLa-JRFL Env/CEM21 cell fusion, luciferase. inhibition, % at 12.3 µM. actives 1.1% (n = 360,000). AID 651610;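 active means mean replicate inhibition score of at least 50 and every replicate individually at or above 50; inconclusive means only one of the two criteria met; inactive means mean below 50 and not all replicates reaching 50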;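 further: 0% = plate neutral controls and 100% = maraviroc near 300 nM; one replicate is shown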
# CSC inhib: cancer stem cell inhibition; cancer stem cell-like cells viability, luminescence; AID 2717; actives 1.1% (n = 300,000); inhibition, % at 7.5 µM;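 active means mean at 75% or more and at least half the replicates too; inconclusive means mean and replicates disagree; tested in HMLE shEcad cells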;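 further: 0% = median of negative and 100% = median of positive control wells; the first replicate is given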
# Rce1 inh: blocks yeast Ras-converting enzyme; Q03530; yeast membranes, quenched prenylated peptide cleavage fluorescence; calls only; actives 0.27% (n = 290,000); AID 2563;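 active means fall in fluorescence gain of 50% or more versus controls, with final raw signal at or below 3038400; inconclusive means same 50% fall but final raw signal above 3038400; inactive means fall in fluorescence gain under 50%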;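 further: plate controls were neutral control wells for no effect and wells lacking membranes for full effect; tested at 10 µM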
# eIF4H FP inh: inhibitors of RNA binding by human eIF4H | actives 0.94% (n = 290,000) | Q15056 | eIF4H fluorescence polarization binding assay | inhibition, % at 35 µM | AID 2012;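 active means 50% or more with normal probe brightness, or confirmed in later tests; inconclusive means above 50% with abnormal brightness, or retests that disagree; inactive means below 50% or failed in later tests; about a fifth of its hits are not listed in these tables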;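 further: calls also rest on retests at 20 µM and on dose response follow-up; 0% = protein and probe with vehicle and 100% = probe without protein; strong numbers were not always called active; many hits fall short of the cut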
# MT1-MMP act inh RFP: second read-out of MT1-MMP act inh, no call of its own (marks repeat the call); RFP signal change, %; measured here: RFP expression control read;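 0 = vehicle wells; hits needed this value within 50% of zero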
# The depositor's hits bear a star; i = inactive; u = inconclusive; x = not tested or not shown. These rows are one share of the data. The share of hits here may be higher or lower than overall.
SMILES,UUG fidelity,PABP FP inh,MT1-MMP act inh,MT1-MMP act inh RFP,HIV Env fusion,CSC inhib,Rce1 inh,eIF4H FP inh
COc1ccc(CCNc2nc(=S)[nH]c3cc(OC)c(OC)cc23)cc1OC,x,-20,-6,-12,26,12,i,-6
Cc1ccc(-c2csc3ncnc(N4CCN(c5ccccc5O)CC4)c23)cc1,-18,5,-11,-5,17,-10,i,-1
CC(=O)Nc1c(C(=O)c2ccc(F)cc2)oc2ccccc12,-13,2,2,-2,-41,-5,i,-4
Cc1nnc(SCC(=O)N2CCN(Cc3ccccc3)CC2)s1,-11,2,2,-2,x,-18,i,1
COC(=O)C1C(=O)C2=C(CC1C)NC(C)=C(C(=O)OC(C)C)C2c1ccc(C)o1 (stereo not given),x,1,-1,0,-18,6,i,-4
Cc1c(C(=O)Nc2ccc(C(=O)O)cc2)cnn1C,x,10,3,2,x,-14,i,7
O=C(CCCc1nc2ccccc2s1)NC1CCOC1=O (stereo not given),x,10,2,4,6,-8,i,-3
O=S1(=O)CC(O)C(Nc2ccccc2Cl)C1 (stereo not given),-10,16,-4,-1,-64,-11,i,1
CC(C)Cc1cc(C(=O)N2CCC(N3CCC(C(=O)N4CCOCC4)CC3)CC2)n[nH]1,x,0,4,4,-4,6,i,-9
Cc1ccccc1-n1c(=O)n(CCc2ccccc2)c(=O)c2[nH]cnc21,x,4,0,2,2,-5,i,-8
CCCc1cc(C(=O)Nc2c(C)n(C)n(-c3ccccc3)c2=O)no1,-9,10,4,7,-3,9,i,12
O=C(Nc1ccccc1)N(Cc1cccnc1)Cc1ccco1,8,-3,5,10,-71,-12,i,-5
COc1ccc(N(C)C(=O)c2ccc3c(c2)nnn3C)cc1,x,0,1,0,6,-12,i,6
CCOC(=O)C(O)(C1C(=O)CC(C)(C)CC1=O)C(F)(F)F (stereo not given),-13,9,3,1,x,-1,i,-11
CCOC(=O)c1ccc(CNC(=O)CSc2nnc(-c3ccncc3)o2)cc1,5,-3,-3,-2,11,-5,i,6
Cc1ccccc1-c1nnn(CC(=O)NCc2ccc3c(c2)OCO3)n1,-9,-2,8,-2,9,7,i,-7
Cc1cccc(OCc2n(CC(=O)OC3CC(C)CCC3C(C)C)c3ccccc3[n+]2C)c1 (stereo not given),x,8,-48,-42,x,103*,x,-5
Cc1cccc(C)c1NC(=S)NCc1ccccc1,-21,-5,-7,-1,7,x,i,-8
Nc1nc(SCC(=O)NCc2ccccc2)[nH]c(=O)c1NC(=O)c1ccccc1F,-23,-13,-1,3,x,10,i,-5
COc1ccc(S(=O)(=O)N2CCc3ccccc32)cc1OC,7,-1,4,-9,6,-10,x,-6
Cc1ccc(N2C(=O)C3C4C=CC(C4)C3C2=O)cc1 (stereo not given),-15,-4,2,5,x,2,i,-7
COc1ccncc1-c1ccc(C2=CC(=O)CC(C)(C)C2=O)cc1,0,x,0,-9,19,x,x,x
Cc1ccc2nc(NCC(=O)NN)nc(-c3ccccc3)c2c1,-8,-9,1,-2,4,-15,i,-1
Cc1ccc(NC(=O)CN(C)S(=O)(=O)c2cnc[nH]2)cc1C,x,-3,-2,2,x,-11,i,-7
COc1ccc(-c2nc(CN3CCC(c4ccccc4)CC3)c(C)o2)cc1OC,x,7,-5,-5,9,-7,i,3

# Pulled by compound from the list above:
SMILES,UUG fidelity,PABP FP inh,MT1-MMP act inh,MT1-MMP act inh RFP,HIV Env fusion,CSC inhib,Rce1 inh,eIF4H FP inh
Cc1ccccc1-n1c(=O)n(CCc2ccccc2)c(=O)c2[nH]cnc21,x,4,0,2,2,-5,i,-8
COC(=O)C1C(=O)C2=C(CC1C)NC(C)=C(C(=O)OC(C)C)C2c1ccc(C)o1 (stereo not given),x,1,-1,0,-18,6,i,-4
CCOC(=O)c1ccc(CNC(=O)CSc2nnc(-c3ccncc3)o2)cc1,5,-3,-3,-2,11,-5,i,6

# Further results.
SMILES,UUG fidelity,PABP FP inh,MT1-MMP act inh,MT1-MMP act inh RFP,HIV Env fusion,CSC inhib,Rce1 inh,eIF4H FP inh
COc1ccc(S(N)(=O)=O)cc1C(=O)OCC1CCCCC1,8,2,0,-3,25,5,x,0
CN(C)CCCN(C(=O)c1ccc(S(=O)(=O)N2CCc3ccccc32)cc1)c1nc2ccc(Cl)cc2s1,-2,-47,1,2,-29,5,i,-11
COc1ccc(NC(=S)Nc2nc(CC(=O)Nc3ccccc3OC)cs2)cc1,-28,6,8,-15,u,0,i,-4
CSc1nc(N)nc2c1ncn2Cc1ccccc1,-4,x,5,-7,16,x,x,x
COc1cc(CNCc2c[nH]c3ccccc23)cc(OC)c1,x,6,3,-3,-15,x,i,1
O=C1C=C(c2cc(C(F)(F)F)cc(C(F)(F)F)c2)C[C@@H](c2ccc(Cl)cc2)C1,-8,x,0,0,20,37,x,x
Cc1ccc(N2CC(=O)N(NC(=O)CN3CCN(c4ccccc4)CC3)CC2=O)cc1,x,-1,5,-5,12,x,i,-2
O=[N+]([O-])c1ccccc1Nc1ccc(O)cc1,5,7,4,0,-7,2,i,8
O=C(NC(=S)Nc1ccccc1C(=O)O)c1ccc2ccccc2c1,x,-21,-1,2,3,0,i,-1
COc1cc2[nH]c3c(=O)n(CCN4CCCCC4)cnc3c2cc1OC,-17,-1,21,-1,x,-10,i,-2
CN(C(=O)c1cc(COc2ccc(F)cc2Cl)on1)C1CCCc2ccccc21 (stereo not given),-17,-3,1,-1,16,26,i,-6
CCCCNC(=O)CCn1c(=O)c2ccccc2n(CC(=O)N2CC(C)CC(C)C2)c1=O (stereo not given),8,-2,0,6,x,0,i,8
CCn1cc(CN2CCC(C(=O)Nc3ccc(Oc4cccnc4)cc3)CC2)cn1,-7,9,1,-1,2,7,i,-6
Cc1ccc(C)c(NC(=O)C2(C)CCN2C(C)C)c1 (stereo not given),-41,x,2,5,21,x,x,x
CSc1cnc2c(N)nc(N(C)C)nc2n1,x,-3,0,2,-74,-4,i,20
O=C(c1csc2c1CCCC2)N1CCCCC1,-9,0,1,8,-116,-4,x,-6
Cc1ccc(S(=O)(=O)N(CC(=O)O)Cc2ccccc2)cc1,x,-1,-2,1,x,x,i,-6
CSCCC(NC(=O)/C(=C/c1ccco1)NC(=O)c1ccco1)C(=O)O (stereo not given),-11,x,-3,-2,-1,-17,i,x
Cc1ccccc1CC(=O)NC1CCN(Cc2ccccc2)CC1,-15,-20,3,0,-7,12,i,-15
CCOC(=O)C1(Cc2ccc(OC)cc2)CCN(C(=O)CCN2CCCC2=O)CC1,-4,-4,8,0,-1,-2,i,-3
CCOC(=O)C1=C(COC(=O)C2(C)CC2(Cl)Cl)NC(=O)NC1c1ccccc1 (stereo not given),-6,-12,3,3,15,x,i,3
CC(C)(C)c1cc(NC(=O)c2cccc([N+](=O)[O-])c2)no1,x,43,1,1,x,-1,i,-3
CC1CCC(NC(=O)CCS(=O)(=O)c2ccc3c(c2)NC(=O)CO3)CC1 (stereo not given),-11,-15,0,0,-6,-6,i,-6
CCOc1ccc(-c2nc(S(=O)(=O)c3ccccc3)c(N3CCC(C(N)=O)CC3)o2)cc1,-11,30,-2,3,-37,-7,i,-12
CN(Cc1ccccc1)S(=O)(=O)c1ccc(Cl)c(C(=O)NCCc2ccccn2)c1,-2,14,-2,-6,-4,-10,i,8

# (list continues)
SMILES,UUG fidelity,PABP FP inh,MT1-MMP act inh,MT1-MMP act inh RFP,HIV Env fusion,CSC inhib,Rce1 inh,eIF4H FP inh
COC(=O)c1ccc2c(c1)C(C)(C)C(/C=C/c1ccc(O)cc1)=[N+]2C,x,4,86,90,i,56,i,u
Cc1ccccc1-n1c(Cn2c(=O)sc3ccccc32)nnc1SC(C)C,-16,-10,-4,-1,-6,-5,i,7
Cc1cc(C)cc(OCC(=O)Nc2cccc(S(=O)(=O)NC3=NCCC3)c2)c1,-5,x,-1,0,i,25,x,x
COC(=O)CCCSc1nccn1-c1ccccc1,x,-9,-1,1,13,4,i,1
NC(=O)CSc1nc(C23CC4CC(CC(C4)C2)C3)nc2ccccc12,x,59*,14,-15,-7,55,i,-1
O=C(O)C1=C(Nc2ccccc2)OCC1=O,-19,6,3,7,-12,x,i,-3
C/C(=N\Nc1ccc(F)cc1F)c1ccc(F)cc1,x,8,x,x,x,-14,i,2
CCOc1cc(C(c2c(O)nc(SC)[nH]c2=O)c2c(O)nc(SC)[nH]c2=O)ccc1O,-6,x,-37,4,-80,-6,i,x
CCc1nnc(NS(=O)(=O)c2ccc(NS(=O)(=O)c3ccccc3)cc2)s1,-20,9,-2,2,x,9,i,6
C[C@H](NS(=O)(=O)c1c(Cl)cccc1Cl)C(=O)NNC(=O)COc1ccccc1F,-8,x,-4,0,8,-21,x,x
COc1cccc(/C=N/NC(=O)c2ccc(-n3cnnn3)cc2)c1,-10,x,5,0,-6,x,x,x
C/C(=N\O)C(C)(C)NC(=O)Nc1ccc(Cl)cc1,x,1,x,x,6,3,i,-4
CCc1nnc(NC(=O)c2cc(C)oc2C)s1,9,7,2,4,-39,3,i,0
COC(=O)C1=C(CSc2nc3c(cc2C#N)CN(C)CC3)OC(N)=C(C#N)C1c1ccccc1F (stereo not given),-5,u,-96,17,x,0,i,u
CC(=O)N(CCCN(C)C)c1nc2ccc(C)cc2s1,x,-6,7,0,-120,-14,i,-11
Cc1nn(C)c(C)c1S(=O)(=O)N1CCCC(C(=O)N2CCN(c3ccc(Cl)cc3)CC2)C1 (stereo not given),-1,-14,-9,-22,63*,-17,i,3
COc1cccc(C=NNC(=S)NN=Cc2cccc(OC)c2OC)c1OC,-20,x,4,5,38,x,x,x
Cc1onc(-c2ccccc2)c1C(=O)N(Cc1ccccn1)Cc1ccccn1,x,-1,7,4,17,-5,i,-3
CCOC(=O)c1sc(NS(=O)(=O)c2ccc(F)cc2)nc1C,-9,3,1,3,14,5,i,1
COc1cccc(C(O)c2nc(-c3ccc(Cl)cc3)cs2)c1 (stereo not given),2,x,6,-17,11,x,x,x
Cc1ccn2c(C(=O)CSc3ccccc3Cl)c(C)nc2c1,-25,2,4,-2,x,x,i,5
CC1(C(=O)NS(=O)(=O)Cc2ccccc2C(F)(F)F)CCN1C(=O)Cc1ccsc1 (stereo not given),-6,x,-2,7,5,x,x,x
Cc1ccccc1C(=O)NNC(=O)c1cccc(Br)c1,-10,1,-2,-2,-5,-8,i,2
CN(Cc1ccccc1)c1nc2c(c(=O)n(C)c(=O)n2C)n1CCSc1ncccn1,4,14,-2,-1,x,4,i,-5
O=C(O)Cn1nc(C(F)(F)F)c2c1CCC2,-7,9,0,-2,-30,x,i,-6

# Next section
SMILES,UUG fidelity,PABP FP inh,MT1-MMP act inh,MT1-MMP act inh RFP,HIV Env fusion,CSC inhib,Rce1 inh,eIF4H FP inh
CCC(=O)Oc1ccc2c(c1)O/C(=C\c1ccco1)C2=O,-7,u,-43,0,-27,-5,i,u
O=C(CN1C(=O)NC2(CCCC2)C1=O)OCCOc1ccc(Cl)cc1,-13,x,-1,0,-7,-13,i,x
NC1=C(O)C(=O)C(c2ccccc2)O1 (stereo not given),-9,25,1,5,-3,-7,i,16
CCOc1ccc(-c2cnc(SCC(N)=O)nc2N)cc1,-20,3,0,-2,x,6,i,-6
CCO/N=C(\C)c1c(O)c2ccccc2n(C)c1=O,-8,4,0,6,-1,-1,i,-5
O=C(NCc1ccccc1)N1CCCC1,-3,-4,-7,0,-15,-5,i,6
CCOCCn1cnc2sc(C(=O)NCC(=O)OCC)c(C)c2c1=O,-16,4,2,4,x,-11,i,-3
Nn1c(SCC(=O)Nc2ccc(F)cc2F)nnc1C1CCCCC1,-11,0,5,1,-61,2,i,-2
COc1cc(/C=C(\C#N)C(=O)NCC2CCCO2)ccc1OC(=O)c1ccco1 (stereo not given),-5,x,1,1,1,-11,x,x

# Screening data (PubChem BioAssay)
